Source: PubChem BioAssay (National Center for Advancing Translational Sciences (NCATS))
Cruzain Triton = blocks cruzain activity in presence of Triton detergent. P25779. purified cruzain, Z-FR-AMC fluorescence, 0.01% Triton. Potency, µM, inactives show max response, negative = inhibition, usual class: inhibitors. 0.43% of 200,000 active;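 note: plate controls were neutral wells for no effect and buffer without enzyme for full effect; nearly all actives have a fitted effect of over 40% in size; top concentration of the series not given in the record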
Target sequence (P25779 123-467 limits assumed): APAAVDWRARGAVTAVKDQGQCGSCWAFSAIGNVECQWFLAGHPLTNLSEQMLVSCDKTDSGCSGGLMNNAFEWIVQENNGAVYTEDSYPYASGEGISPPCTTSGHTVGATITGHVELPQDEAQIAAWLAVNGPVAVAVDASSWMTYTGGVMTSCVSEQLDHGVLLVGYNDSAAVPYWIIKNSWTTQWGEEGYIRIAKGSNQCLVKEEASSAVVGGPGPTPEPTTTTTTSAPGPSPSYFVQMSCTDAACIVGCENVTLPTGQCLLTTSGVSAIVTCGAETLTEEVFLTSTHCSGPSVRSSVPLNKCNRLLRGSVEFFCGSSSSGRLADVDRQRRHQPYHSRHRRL
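Steps: dispense cruzain (1.5 nM final) in acetate buffer pH 5.5 with DTT and 0.01% Triton X-100; pin-transfer compounds; incubate 15 min RT; add Z-FR-AMC (2 uM final); read fluorescence every 30 s, using the 60 s intensity change.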
NS1 function inh = inhibitors of influenza NS1 protein function; 0.4% of 270,000 active; S. cerevisiae slowed by influenza A NS1, growth recovery by OD600; Potency, µM (doses to about 46.1 µM), inactives show at the highest dose activity, positive = more growth; AID 2326; active means well fitted rising curve with a large enough effect; inconclusive means small, poorly fitted or top-dose-only effect; inactive means no such curve, though single readings can be large or run the other way; note: nearly all actives have a fitted effect of over 50% in size
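A cell-based growth assay was used: compounds that relieve NS1-induced slow growth of budding yeast raise OD600. Assay medium was yeast nitrogen base with ammonium sulphate and -URA supplement, pH 6.0, with 2% galactose.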
StopGo reporter = FMDV 2A StopGo reporter, luciferase signal. human cells with a luciferase reporter of 2A StopGo recoding; control for the full effect not named in the record. Potency, µM (titrated, usually from 57.9 µM), inactives show at the highest dose signal change, negative = less light. 1.2% of 410,000 active. AID 1159524; active = well fitted falling curve with a large enough effect; inconclusive = small, poorly fitted or top-dose-only effect; inactive = no such curve, though single readings can be large or run the other way; tested in HEK293T cells; note: % is set by controls: 0 for no effect and ±100 for the full control effect; nearly all actives have a fitted effect of over 45% in size; luciferase light after 4 h
MARV entry inh = inhibitors of Marburg virus binding or cell entry; Marburg virus pseudotyped entry inhibition, cell reporter; control for the full effect not named in the record; about a third of the inactives were read at about 46 µM; Potency, µM (series often up to 37.8 µM), without a hit: at the highest dose activity change, negative = inhibition, hits mostly inhibitors; 1.8% of 300,000 active; active = well fitted inhibition curve with a large enough effect; inconclusive = small, poorly fitted or top-dose-only effect, or effect the other way; inactive = flat fitted curve, though single readings scatter; tested in HEK293 cells; about a fifth of its hits are not listed in these tables; note: % is set by controls: 0 for no effect and ±100 for the full control effect; luciferase read-out
SARS PLpro yeast = inhibitors of SARS-CoV papain-like protease in yeast. S. cerevisiae expressing SARS-CoV PLpro, growth rescue; control for the full effect not named in the record. Potency, µM (doses to about 32.9 µM), for inactives: at the highest dose activity, positive = growth rescue. 0.19% of 330,000 active. AID 485353; active means well fitted rising curve with a large enough effect; inconclusive means small, poorly fitted or top-dose-only effect; inactive means no such curve, though single readings can be large or run the other way; note: 0% is about no effect; nearly all actives have a fitted effect of over 55% in size; growth read by luminescence after 48 h
Cruzain inh noDet = cruzain (T. cruzi) inhibition without detergent; P25779; purified cruzain, Z-FR-AMC fluorescence, no detergent; Potency, µM, for inactives: max response, negative = inhibition, most hits filed as inhibitors; 2.3% of 200,000 active; AID 1476;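 note: plate controls were enzyme without inhibitor for no effect and buffer without enzyme for full effect; nearly all actives have a fitted effect of over 40% in size; top concentration of the series not given in the record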
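Detergent-free condition (0.00005% Triton X-100) in acetate buffer pH 5.5 with DTT. 1.5 nM enzyme and compound were pre-mixed 15 min, then 2 uM Z-FR-AMC substrate added; reaction progress from fluorescence change between first and third reads (60 s).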
RE007 growth inh = less growth of the S. pombe RE007 Vpr strain; 0.21% of 360,000 active; S. pombe RE007 Vpr strain, BacTiter-Glo ATP luminescence, 24 h; control for the full effect not named in the record; Potency, µM (titrated, usually from 92.2 µM), for inactives: at the highest dose activity change, negative = less growth; active = well fitted falling curve with a large enough effect; inconclusive = small, poorly fitted or top-dose-only effect; inactive = no such curve, though single readings can be large or run the other way;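 note: % is set by controls: 0 for no effect and ±100 for the full control effect; nearly all actives have a fitted effect of over 50% in size; the assay follows cell death caused by Vpr and the record does not say whether a fall means rescue or toxicity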
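Fission yeast RE007 carrying one integrated HIV-1 vpr copy, seeded at OD 0.01 in PMG+AL medium with 23 nL pinned compound. Grown 24 h at 30 degrees; viability read by BacTiter-Glo luminescence after 5 min.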
LASV entry inh = Lassa virus entry inhibition | Lassa virus pseudotype entry inhibition, cell reporter; control for the full effect not named in the record | Potency, µM (highest dose often 37.9 µM), inactives show top-dose activity change, negative = inhibition, usual class: inhibitors | 1.2% of 300,000 active | AID 540256; active means well fitted inhibition curve with a large enough effect; inconclusive means small, poorly fitted or top-dose-only effect, or effect the other way; inactive means flat fitted curve, though single readings scatter; tested in HEK293 cells; note: % is set by controls: 0 for no effect and ±100 for the full control effect; nearly all actives have a fitted effect of over 50% in size; luciferase read-out
An asterisk follows results filed as active; ? = inconclusive; / = not tested or not shown; & = joins results of further samples; [ ] = dose if it differs, or a comment. Unless noted, calls come from the whole dose curve; as a rule, active = well fitted curve in the direction sought with a large enough effect; inconclusive = small, poorly fitted or top-dose-only effect, or another doubt; inactive = no such curve, though single readings can be large; an effect the other way counts as inactive or inconclusive. Potency is the fitted concentration of half-maximal effect.

smiles | Cruzain Triton | NS1 function inh | StopGo reporter | MARV entry inh | SARS PLpro yeast | Cruzain inh noDet | RE007 growth inh | LASV entry inh
O=C(c1ccco1)N1CCN(C(c2ccccc2F)c2nnnn2Cc2cccs2)CC1 (stereo not given) | -5.0% | -7% | 0% | -2%&0% | 8% | -2% | -2% | -18%
O=c1c2ccccc2nc(SCc2cccc(F)c2)n1-c1cccc(S(=O)(=O)N2CCCC2)c1 | -1.1% | 22% | -17% | ? | -4% | ? | / | -24%
Cc1cc(C)nc(SCc2c(F)cccc2Cl)n1 | / | -6% | -17% | 2% | 1% | / | -14% | 0%
Oc1ccc(C[C@H]2NCCc3cc(O)c(O)cc32)cc1O | / | 6% | 3% | 2.8µM* | -3% | / | -12% | ?
Cc1cc(Cl)ccc1OCCSc1nnc(-c2cccs2)o1 | -5.2% | / | 1% | -6%[46.1 µM] | / | -8% | / | -2%[46.1 µM]
CC1=Cc2ccccc2C(C#N)N1C(=O)c1ccccc1 (stereo not given) | 0.2% | 5% | -13% | ? | -17% | -3% | -3% | ?
COc1cc(-c2cccc([C@H]3[C@@H]4C=CC[C@@H](C)[C@@H]4C(=O)N3Cc3ccccc3)c2)cc(OC)c1OC | -0.5% | / | -2% | / | 2% | 1% | -2% | /
O=C(c1ccc2c3c(cccc13)C(=O)N(O)C2=O)N1CCCCC1 | -9.0% | -9% | 11% | 1% | 0% | -10% | 31% | 6%
CC(=O)NC(C)c1nc2ccccc2n1CC(=O)N1C(C)CCCC1C (stereo not given) | / | 7% | 1% | 0%[46.1 µM] | 0% | / | -17% | /
COc1cccc(NC(=O)c2oc3ccc(S(=O)(=O)N(C)C4CCCCC4)cc3c2C)c1 | 0.5% | / | -13% | / | / | ? | / | -4%[46.1 µM]
COC(=O)c1ccc(CNC(=O)C2CCC(=O)N(C3CCCCCC3)C2)cc1 (stereo not given) | / | 4% | 2% | / | -1% | / | -5% | /
C/C(=N\NC(=O)c1ccccc1C)c1cccnc1 | / | 4% | 36%[activator] | / | 1% | / | -6% | /
Cc1ccc(-c2csc(NC(=O)c3cccc([N+](=O)[O-])c3)n2)cc1 | -2.9% | 5µM* | ? | -14% | 7% | 8% | 5% | ?
CCn1c(SCC(=O)Nc2cccc(NC(C)=O)c2)nnc1C(C)C | 4.4% | 8% | -7% | -14%[46.1 µM] | 8% | -3% | 10% | -3%
CCC(C)(C(=O)NC1CCCC1)N(C(=O)c1cnccn1)c1c(C)n(C)n(-c2ccccc2)c1=O (stereo not given) | -0.1% | 0% | 21% | -4% | -10% | -5% | 23% | 3%
COc1cc(C(=O)NCc2ccc(C)cc2)ccc1OCc1c(C)noc1C | -3.8% | 7% | 4% | -23% | -8% | 3% | -10% | -8%
COc1ccc(OCC(O)CNC(=O)Nc2cccc3ccccc23)cc1 (stereo not given) | / | -10% | 44%[activator] | 0%[46.1 µM] | -1% | / | 0% | -16%[46.1 µM]
Cc1ccc(C(=O)N2CCC(c3c[nH]c4ccccc34)(c3c[nH]c4ccccc34)CC2)cc1 | -2.6% | / | ? | ? | / | -19% | / | ?
C/C(=N\NC(=O)c1cccc(N2CCCC2=O)c1)c1ccc(N)cc1 | / | / | 49%[activator] | 12%[46.1 µM] | 1% | / | 0% | /
Cc1cc(C(F)(F)F)n2[nH]c(=O)c(N=Nc3ccccc3)c2n1 | / | / | -1% | ? | -1% | / | 0% | -30%[46.1 µM]
C=CCNc1nc(N)c([N+](=O)[O-])c(N2CCCCCC2)n1 | / | -56% | ? | ? | -1% | / | 4% | -18%
Cc1ccc(C(=O)c2c[nH]c(C(=O)NCc3cccnc3)c2)cc1 | -3.7% | -3% | -22% | -22% | 0% | -5% | -22% | -4%
CC(=O)c1c2c3c(cccc3n(C)c1=O)C(=O)c1ccccc1-2 | / | 15% | -11% | / | 0% | / | -2% | /
CCC(C(=O)Nc1ccc2c(c1)OCCO2)c1ccccc1 (stereo not given) | / | 2% | -12% | ? | -3% | / | -11% | ?
Cc1cc(C(=O)N2CCc3c([nH]c4ccccc34)C2c2c(F)cccc2Cl)no1 (stereo not given) | / | 2% | -13% | ? | 0% | / | 13% | ?
O=C(Cc1c(F)cccc1Cl)NCC(=O)OCc1ccccc1 | / | / | 7% | 18%[46.1 µM] | -4% | / | -18% | 6%
COc1ccccc1-c1noc(CCC(=O)NC2CCCC2)n1 | / | 13% | 15% | 16%[46.1 µM] | 11% | / | 2% | -2%[46.1 µM]
COCC(=O)Nc1nc(-c2ccc(C)cc2)c(C)s1 | -3.7% | 1% | 9% | 3% | 5% | 14% | ? | 22%
O=C(O)C/C=C(/NC(=O)OCc1ccccc1)C(=O)OCc1ccccc1 | / | / | -9% | ? | -4% | / | 0% | 22%[46.1 µM]
CC(C)(C)c1ccc(C(=O)NCCC(=O)NCc2cccs2)cc1 | / | 0% | 7% | / | -1% | / | 1% | /
O=C(CN1C(=O)c2ccccc2C1=O)Nc1ccc(S(=O)(=O)N2CCOCC2)cc1 | / | -11% | -10% | -2%[46.1 µM] | 1% | / | 3% | 1%
COc1ccc(OC)c(NC(=O)CN(C)CC(=O)Nc2ccccc2Br)c1 | / | / | -29% | 21%[46.1 µM] | -1% | / | -2% | ?
Cc1ccc(S(=O)(=O)c2nc(S(C)(=O)=O)sc2N2CCCCCC2)cc1 | / | 1% | 26% | / | -1% | / | 7% | /
CCc1c(C)nc2cc(C)[nH]n2c1=O | 4.3% | -10% | 0% | 17% | 11% | -3% | 19% | -2%
CCOP(=O)(OCC)c1nc(-c2cccc3ccccc23)oc1NCc1ccccc1 | ? | -17% | 9% | ? | -6% | ? | 7% | 15%[14.3 µM]
COc1ccc(OC)c(-n2c(-c3cccc(O)c3)n[nH]c2=S)c1 | 3.7% | -8% | / | -17% | -2% | 7% | 1% | 7%
COc1ccccc1CCNC(=O)C(=O)NCC1OCCN1S(=O)(=O)c1cccs1 (stereo not given) | / | -39% | -18% | 4% | -5% | / | 3% | ?
Cc1ccc(/C=N/NC(=O)Cn2nnc(N)n2)o1 | / | 1% | -6% | -7% | 0% | / | -1% | -3%
CCCOc1ccc(CSC(=N)N)cc1C(=O)OC | / | 0% | -15% | -16% | 0% | / | -8% | -13%
Cn1nnc(NC(=O)c2cccc(F)c2)n1 | -0.4% | -1% | 17% | 2% | -4% | -3% | 16% | 4%
COc1ccc(NC(=O)c2ccc3c(=O)n(CC4CCCO4)c(=S)[nH]c3c2)c(OC)c1 (stereo not given) | / | 3% | -30% | 0%[46.1 µM] | -9% | / | 7% | 12%
COc1ccc(NC(=O)c2nc[nH]c2C(=O)N2CCC(C)CC2)cc1 | / | -3% | -3% | / | 3% | / | -13% | /
CN(c1ccc(C(=O)N2CCc3ccccc3C2)cc1)S(C)(=O)=O | -0.5% | -8% | -9% | ? | -12% | 4% | 8% | 12%
CCCN(CCC)C(=O)Cn1c(=O)n(-c2ccccc2)c(=O)c2c3c(sc21)CCCC3 | -2.5% | / | 0% | 7%[46.1 µM] | / | -7% | / | ?
O=C(c1ccc(F)cc1)C1CCN(C(=S)Nc2ccc(F)cc2)CC1 | / | -15% | 15% | / | -5% | / | 17% | /
CCN(CC(=O)Nc1c(F)cccc1F)C(=O)CCNC(=O)c1ccc([N+](=O)[O-])cc1 | / | / | -1% | ? | 1% | / | 15% | 2%
Cc1ccc(S(=O)(=O)Nc2nc3ccccc3nc2NCc2ccc3c(c2)OCO3)cc1C | -2.7% | 9% | 24% | -5% | -16% | ? | 15% | 2%
Cc1cccc(NC(=O)COc2ccccc2)c1 | -4.9% | -60% | 57%[activator] | ? | -2% | 7% | -20% | 10%
CCc1ccc(CNc2ncc(-c3cccc(OC)c3)n2C)cc1 | -1.0% | / | -29% | ? | / | -8% | / | ?
Cc1csc2nnc(N)n12 | -0.4% | 2% | 6% | 9% | -2% | 1% | -6% | 6%
CCC(C)N(C(=O)COc1ccccc1C#N)C1CCS(=O)(=O)C1 (stereo not given) | / | / | 4% | ? | 1% | / | 4% | 4%[46.1 µM]
COc1ccc(CCNCC(O)COc2cccc(C(C)=O)c2)cc1OC (stereo not given) | / | 3% | -16% | ? | 2% | / | -7% | 10%[46.1 µM]
Cc1cc(N2CCC(C(=O)Nc3ccc(F)cc3F)CC2)n2nc(C)c(-c3ccc(Cl)cc3)c2n1 | -0.6% | / | -19% | 6%[46.1 µM] | / | 3% | / | 11%[46.1 µM]
CCOc1ccc2nc(SCC(=O)N(C)C)[nH]c2c1 | 2.0% | 10% | 74%[activator] | -29%[46.1 µM] | 14% | -2% | -20% | ?
Cc1c(C)n(Cc2ccc(F)cc2)c2ccc(C(=O)N3CCN(c4ccccn4)CC3)cc12 | / | -24% | -6% | / | -4% | / | 10% | /
Cc1cn2c(=O)cc(COc3ccccc3NC(=O)c3ccc(Cl)cc3)nc2s1 | 1.0% | / | -6% | -8%[46.1 µM] | / | -7% | / | 4%[46.1 µM]
COc1ccc2nc(N=Nc3ccc(O)c4ccccc34)sc2c1 | -5.4% | -1% | 0% | ? | 7% | 3% | -12% | ?
COc1cc(NC(=O)CSC(=S)N2CCCC2)c(OC)cc1Cl | / | / | -9% | 11% | 11% | / | 20% | -2%
COc1ccc(-c2cc(C(F)(F)F)nc(N3CCOCC3)n2)cc1 | -14% | 5% | -28% | -27% | -1% | 7% | -10% | -15%
COCCNC(=O)/C(=C/c1ccccc1Cl)c1ccccc1 | -2.3% | -6% | 0% | 3% | 18% | -8% | 6% | ?
O=S(=O)(Nc1ccncc1Cl)c1ccccc1 | 2.1% | 6% | -12% | 3% | 10% | -4% | 12% | -13%
CC(C)(C)Oc1ncc(Br)c(OC(C)(C)C)n1 | 5.1% | 1% | 6% | 4% | / | -2% | 2% | 22%
CCCCC(=O)NC(=S)Nc1cc([N+](=O)[O-])ccc1OC | / | -2% | 4% | / | -2% | / | 3% | /

Not a hit list; 4.7% or so of the library scored in one or more.
